CtBP-E1A blk: CtBP/E1A binding inhibition; AlphaScreen GST-E1A/His-CtBP binding, 1536-well; hits give low values; control for the full effect not named in the record; activity change, % (concentration not given with the values); hit rate 0.49% among 340,000; AID 651724; in the data active means activity change below about -65%; inconclusive means about -30% to -65%; inactive means above about -30%; also: % is scaled to controls: 0 for no effect and ±100 for the full control effect
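Protein mix (5X: 125 nM each GST-E1A, His-CtBP) was incubated with pinned compound 2 h at 37 deg C in dark, in 50 mM Tris pH 8.0 buffer with 300 mM NaCl. Glutathione donor and nickel acceptor beads followed; AlphaScreen signal read after 1 h.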
PINK1 modulator: changes PINK1 expression; PINK1 immunofluorescence, high-content cytometry, 24 h; hit rate 0.2% among 410,000; Potency, µM (doses to about 76.6 µM), for the others: at the highest dose activation (PINK1 increase), usual class: activators; AID 624263; active = well fitted activation curve with a large enough effect; inconclusive = small, poorly fitted or top-dose-only effect; inactive = flat fitted curve, though single readings scatter; cell line not stated here;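 also: potency is read from the fitted curve at half-maximal effect; % of control where 0% means no effect; nearly all actives have a fitted effect of over 65% in size; a mitochondrial uncoupler was the plate control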
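Compound titrations (5 concentrations, 24 h) on a stable cell line; DMSO and CCCP controls. Endpoint: fixed-cell PINK1 immunofluorescence with mitochondrial, cell and nuclear markers, scanned by microplate cytometer.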
D2 agonist: agonists of human D2 dopamine receptor (beta-arrestin). P14416. DiscoveRx PathHunter D2 beta-arrestin, luminescence, 90 min; 100% = 57 uM dopamine signal. activation, % (no concentration beside the values). hit rate 0.084% among 360,000. AID 624465; in the data active = activation above about 40%; inconclusive = about 15% to 40%; inactive = below about 15%; also: compound concentration not given in the record; the text of the record calls up to 30% inactive
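DiscoveRx PathHunter D2 beta-arrestin cells (2,100/well) attached overnight, then compound-stimulated 90 min at 37 C in HBSS/10 mM HEPES/0.1% Tween-20 buffer; beta-galactosidase complementation read by luminescence after 1 h at ambient temperature. Dopamine 57 uM final (EC100) as control.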
TRPML1 ag: human mucolipin-1 channel agonism. Q9GZU1. TRPML1-expressing cells, Ca2+ dye fluorescence, FDSS; host cell line not named in the record; reference of the full effect not given here. activation, % (test concentration not listed). hit rate 0.12% among 410,000; in the data active = activation above about 50%; inconclusive = about 30% to 50%; inactive = below about 30%; also: 0% is about no effect; the text of the record puts the active cut at 80%
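Kinetic FDSS Ca2+ read in Tet-induced TRPML1-DL cells (ABD Ca8 dye plus quencher, 45-90 min RT loading): baseline, then compound, then 110 s agonist window; EC80 agonist 54-4 at 4uM final added afterwards for a 110 s antagonist window.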
Six1-Eya2 inh: inhibitors of human Six1/Eya2 interaction. Q15475+O00167. AlphaScreen GST-Six1/His-Eya2 binding, biochemical; hits give low values; control for the full effect not named in the record. activity change, % (test concentration not listed). hit rate 0.56% among 360,000; in the data active = activity change below about -65%; inconclusive = about -30% to -65%; inactive = above about -30%; also: % is scaled to controls: 0 for no effect and ±100 for the full control effect; compound concentration not given in the record
Target sequence (O00167 whole entry, looked up): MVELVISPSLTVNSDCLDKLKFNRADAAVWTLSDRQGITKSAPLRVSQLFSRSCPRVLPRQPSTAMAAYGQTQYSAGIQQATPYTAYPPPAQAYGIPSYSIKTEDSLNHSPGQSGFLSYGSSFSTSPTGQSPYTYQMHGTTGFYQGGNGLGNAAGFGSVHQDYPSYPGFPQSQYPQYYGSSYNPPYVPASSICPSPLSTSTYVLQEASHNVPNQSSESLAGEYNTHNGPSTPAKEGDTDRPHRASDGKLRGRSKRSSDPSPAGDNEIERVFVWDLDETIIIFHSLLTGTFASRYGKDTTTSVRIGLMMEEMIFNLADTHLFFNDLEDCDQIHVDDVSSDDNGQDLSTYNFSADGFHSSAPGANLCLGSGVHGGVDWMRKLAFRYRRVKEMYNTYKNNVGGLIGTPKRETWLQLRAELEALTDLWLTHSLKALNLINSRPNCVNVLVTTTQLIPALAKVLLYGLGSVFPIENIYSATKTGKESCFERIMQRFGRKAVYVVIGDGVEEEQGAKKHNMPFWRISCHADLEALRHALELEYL
Target sequence (Q15475 whole entry, looked up): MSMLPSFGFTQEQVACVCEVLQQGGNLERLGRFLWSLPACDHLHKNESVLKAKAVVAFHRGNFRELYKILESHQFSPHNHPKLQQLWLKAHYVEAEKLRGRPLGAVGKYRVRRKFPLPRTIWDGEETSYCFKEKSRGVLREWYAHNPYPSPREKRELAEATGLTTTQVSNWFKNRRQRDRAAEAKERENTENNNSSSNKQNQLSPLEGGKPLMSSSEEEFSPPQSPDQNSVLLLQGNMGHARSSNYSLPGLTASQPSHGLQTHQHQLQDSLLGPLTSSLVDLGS
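GST-Six1 + His-Eya2 (5X stock: 250/500 nM); Tris pH 8.0, 300 mM NaCl, 0.05% BSA, 0.02% Tween 20; GSH donor/Ni acceptor beads; 1 h 37 °C dark; AlphaScreen readout.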
TRPML1 inh: blocks the human TRPML1 channel | hit rate 0.02% among 390,000 | TRPML1-inducible cells, Ca2+ dye fluorescence, FDSS; hits give low values; inhibition of EC80 agonist-evoked calcium signal | Q9GZU1 | activity change, negative = inhibition, % (no concentration beside the values); in the data active means activity change below about -50%; inconclusive means about -30% to -50%; inactive means above about -30%;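 also: stimulus is agonist 54-4 at its EC80 concentration; % is scaled to controls: 0 for no effect and ±100 for the full control effect; compound concentration not given in the record; the text of the record puts the active cut at -80%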
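Tet-induced TRPML1-DL cells loaded with Ca8 no-wash calcium dye were read kinetically on FDSS. Compound addition was followed by EC80 agonist 54-4 (4 uM final); inhibition was read over 110 s.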
An asterisk follows results filed as active; ? = inconclusive; . = no result given; [ ] = dose if it differs, or a comment.

SMILES	CtBP-E1A blk	PINK1 modulator	D2 agonist	TRPML1 ag	Six1-Eya2 inh	TRPML1 inh
COC(=O)c1ccc(N2CCOCC2)c(NC(=O)c2cccs2)c1	8	-1.0%	-7.4	-0.3	3	-6
COc1ccc2c(c1)c(CC(=O)Nc1ccccc1OC)c(C)n2C(=O)c1ccc(Cl)cc1	-3	0.8%	1.7	-0.1	-1	27
Cn1c(=O)c2[nH]c(CCC3CCCC3)nc2n(C)c1=O	0	-3.3%	0.9	0.8	8	28
CCOc1cc(/C=N\NC(N)=O)cc(Br)c1OC(C)C	-9	4.4%	0.5	3.1	3	-3
CCc1ccc(N(C(=O)CNC(=O)c2ccco2)C(C(=O)NC2CCCC2)c2ccncc2)cc1 (stereo unspecified)	0	2.9%	-6.8	-0.4	10	16
CC(=O)Nc1cc(C)nn1-c1nc(C)cc(C)n1	2	0.1%	1.0	-0.2	-1	9
COc1ccc(C(=O)N/C(=C\c2cccc3ccccc23)C(=O)N2CCN(C)CC2)cc1	-1	1.3%	-2.5	0.9	-2	-13
O=C(Nc1ccccc1Cl)c1sccc1-c1ccccc1	47	9.4%	-2.9	4.0	25	-15
O=C(CN(Cc1ccco1)C(=O)CCC(=O)Nc1nccs1)NCc1ccccc1	-8	0.0%	-1.8	0.7	2	13
N#Cc1c(NC(=O)/C=C/c2ccco2)sc2c1CCCC2	1	23%	-4.9	0.5	-13	3
N#CC1(Nc2ccc(S(N)(=O)=O)cc2)CCCC1	11	-3.3%	-3.2	0.0	0	23
Cc1nc2ccsc2c(=O)n1-c1ccc(Cl)cc1	7	2.6%	-0.8	-0.9	-1	12
CCOC(=O)C(=N/O)/C(C)=N/NC(C)=O	1	0.0%	-3.0	-0.3	12	5
COc1cc2[nH]c3c(=O)n(CCN(C(C)C)C(C)C)cnc3c2cc1OC	-1	-1.4%	0.0	-0.1	-5	9
O=C(CSc1nc(-c2cccs2)cc(C(F)(F)F)n1)NCCCn1ccnc1	1	-6.5%[38.3 µM]	1.6	0.3	0	-4
O=C1CCC(C(=O)OCc2nnc(-c3ccc(Cl)cc3)o2)=NN1	4	1.2%	-2.7	-0.6	2	6
CN1CCN(c2oc(-c3ccccc3F)nc2S(=O)(=O)c2ccc(Cl)cc2)CC1	-17	1.6%	-6.6	0.7	-13	21
COC(=O)c1ccc(Cn2nnc3c(=O)[nH]c(C4CCN(S(=O)(=O)c5ccc(F)cc5)CC4)nc32)cc1	.	0.3%	3.0	0.5	6	2
CC1CN(S(=O)(=O)c2cccc(C(=O)NCc3ccccn3)c2)CC(C)O1 (stereo unspecified)	-2	-1.5%	14	-0.5	0	7
COCc1cc(C)nc(SCc2ccccc2Cl)c1C#N	.	3.5%	-2.8	2.2	46	-14
CC1CN(C(=O)CCC(=O)NCc2ccccc2)c2ccccc2S1 (stereo unspecified)	0	-0.5%	-4.9	-0.8	0	-8
COc1ccc(CNc2nc3ccccc3n2CCN2CCCCC2)cc1	-9	?	-1.2	-0.4	-12	-4
Cn1c(=S)n(/N=C/c2cccs2)c2ccccc21	-6	1.8%	-1.7	2.8	-1	14
O=[N+]([O-])c1ccc(S(=O)(=O)Nc2nc(-c3ccccc3)cs2)cc1	.	21%	8.5	.	6	.
O=c1[nH]nc(SC2CCCCC2)c(=O)[nH]1	2	-1.6%	-8.5	-0.6	0	12
COc1cc(CCC(C)NCc2ccccc2)ccc1O (stereo unspecified)	2	5.3%	?	0.1	0	0
COc1cc(OC)cc(C2=NCCN2)c1	4	0.3%	2.8	-1.0	2	-8
COc1cccc(/C=N/NC(=O)c2cccc3ccccc23)c1	-21	6.7%	-3.1	1.2	-6	-15
O=S(=O)(Nc1cccc(-n2cnnn2)c1)c1ccc(F)cc1	0	6.8%	1.3	-0.8	5	4
CC(C)CNC(=O)c1oc2ccccc2c1COc1ccccc1	25	7.3%	2.3	1.5	13	8
O=C(CC1C(=O)OCCN1Cc1ccccc1)Nc1cccc(C(F)(F)F)c1 (stereo unspecified)	.	1.3%	.	1.5	.	0
O=C(NN=C1CCCC1)c1cc(Br)ccc1O	-4	-1.1%	-2.9	-0.5	-10	9
COc1ccc([C@@H]2CC=C(C(=O)O)[C@H](c3ccccc3)N2S(=O)(=O)c2ccc(C)cc2)cc1OC	1	-1.8%	-1.2	-1.0	3	10
N#Cc1ccc(OCC(O)CN2CCN(C(c3ccccc3)c3ccccc3)CC2)cc1 (stereo unspecified)	-7	3.1%	-3.8	0.0	1	9
Nc1nc(SCc2nc3sc4c(c3c(=O)[nH]2)CCCC4)n[nH]1	-12	-1.2%	-0.8	0.2	-9	5
CC(C)Oc1nc(-c2ccc(Cl)cc2)nc2ccccc12	.	?	-5.2	-0.2	0	-16
CCCCNC(=O)CSc1nc2ccccc2c(=O)n1CCNC(C)=O	3	.	-2.2	-0.3	0	0
CCc1ccccc1N1CC(C(=O)Nc2cc(C)on2)CC1=O (stereo unspecified)	1	12%	-4.4	-0.6	0	-10
COc1ccccc1CNC(=O)C1CCN(C(=O)NC2CCCCC2)CC1	11	0.3%	-6.2	-0.6	2	22
COc1ccc(C(C)=O)cc1COC(=O)c1ccc(OCc2c(C)noc2C)cc1	0	7.0%	2.2	0.5	4	9
O=C(NNc1c2ccccc2nc2ccccc12)c1cc2ccccc2cc1O	?	0.9%	-5.4	0.0	?	13
CCCc1cc2c(cc1NC(=O)c1ccccc1Cl)OCO2	-3	4.7%	-2.9	1.6	5	-1
Cc1ccc2cc(C)c3nnc(SCC(=O)c4cccs4)n3c2c1C	0	2.7%	-0.7	1.1	-6	27
COc1ccc(/C=N/NC(=O)c2ccccc2O)cc1Cn1cc(Cl)cn1	9	7.9%	-5.7	1.6	1	-8
CCOP(=O)(OCC)c1nc(-c2ccc(C)cc2)oc1NCc1ccccc1	4	11%	-0.2	0.2	7	-7
CC(C)CN(C(=O)CSc1n[nH]c(-c2cccs2)n1)C1CCS(=O)(=O)C1 (stereo unspecified)	-15	-1.8%	4.8	1.8	5	-22
COc1cc(/C=C2\C(=N)N3N=C(S(C)(=O)=O)SC3=NC2=O)cc(OC)c1OCCOc1ccccc1C	1	4.3%	-3.1	-0.7	1	-7
O=C(CNC(=O)c1ccccc1)NCC(O)c1ccc([N+](=O)[O-])cc1 (stereo unspecified)	6	-0.5%	-3.3	-0.3	-8	1
c1ccc(-c2cc(N3CCCCC3)nc(-c3ccccc3)n2)cc1	8	3.8%	-1.9	-1.0	-8	10
CCCCCC(=O)Cc1cc(O)cc2c1C(=O)Oc1cc(O)c(C(=O)O)c(CCCCC)c1O2	-3	19%	5.1	.	8	.
CCCCN(C=O)c1c(CC)nc2c(OCc3cccc(Cl)c3)cccn12	0	-0.3%	-2.4	-0.7	-4	.
CCn1c(CNS(=O)(=O)c2ccc(Cl)cc2)n[nH]c1=S	0	0.6%	-6.5	0.4	8	10
O=C(CN1C(=O)/C(=C/c2ccccc2F)Sc2ccccc21)NCC1CCCO1 (stereo unspecified)	.	0.5%	1.3	-0.1	-4	-3
CCOC(=O)C1=CCN(Cc2ccccc2)CC1	2	2.2%	77*	-0.9	3	4
CC(C)N(C(=O)CSc1nnc(NC(=O)C2CCC2)s1)C(C)C	1	0.9%	-2.9	0.1	2	25
CCOC(=O)c1[nH]c(C)c(/C(O)=C2\C(=O)C(=O)N(CCN3CCOCC3)C2c2ccco2)c1C (stereo unspecified)	-5	5.1%	0.3	0.4	8	16
Cc1ccc(-c2ccc(/C=C3\SC(N4CCOCC4)=NC3=O)o2)cc1	.	0.0%	11	5.0	-23	3
Cc1ccc(/C=C2\SC(=S)N(CCC(=O)NNC(=O)c3cccc(O)c3)C2=O)cc1	.	0.9%	?	0.1	-5	-8
COCCNC(=O)CN(C(=O)CCC(=O)Nc1ccccn1)c1ccc(C)cc1C	0	-0.9%	5.1	0.2	2	8
O=[N+]([O-])c1cccc2c(S(=O)(=O)N3CCOCC3)cccc12	0	5.0%	1.6	0.8	2	-1

Rewritten with two lines to a compound: part of the list above
Results follow in this order: CtBP-E1A blk, PINK1 modulator, D2 agonist, TRPML1 ag, Six1-Eya2 inh, TRPML1 inh
O=[N+]([O-])c1ccc(S(=O)(=O)Nc2nc(-c3ccccc3)cs2)cc1
→ ., 21%, 8.5, ., 6, .
O=c1[nH]nc(SC2CCCCC2)c(=O)[nH]1
→ 2, -1.6%, -8.5, -0.6, 0, 12

(further entries)
SMILES	CtBP-E1A blk	PINK1 modulator	D2 agonist	TRPML1 ag	Six1-Eya2 inh	TRPML1 inh
COc1ccc(C(=O)N2c3nc(-c4ccco4)nn3C3(CCCCC3)[C@@H]3CCCC[C@@H]32)cc1OC	.	-0.7%	.	4.0	.	12
Cc1ccc(N2C(=O)c3ccccc3NC2(C(=O)O)c2ccccc2)cc1Cl (stereo unspecified)	6	2.6%	-4.6	.	11	.
C/C(=N\NC(=O)c1cccc(S(=O)(=O)N2CCCC2)c1)c1ccc(OCC(=O)N(C)C)cc1	?	-1.7%	0.7	1.7	-6	3
CSc1cccc(NS(=O)(=O)c2ccccc2)c1	4	0.4%	-1.7	0.0	1	-12
Cc1ccc(Cc2c(C)nc3nc(SCC(=O)NCCCN4CCOCC4)nn3c2C)cc1	3	-0.1%	-1.1	-1.0	0	0
N#Cc1ccc(-c2nc3c4ccccc4ccn3c2Cc2ccsc2)cc1	3	3.8%	.	0.1	4	.
Cc1nnc(SCC2=C(C(=O)O)N3C(=O)C(NC(=O)Cc4ccccc4)C3SC2)s1 (stereo unspecified)	.	-0.5%	-3.9	-0.2	-8	1
CCOc1ccc(Cl)cc1CNCCNCCO	6	?	-1.2	0.4	1	13

Structures shown so far that have a thiophene ring, fused or not:
SMILES	CtBP-E1A blk	PINK1 modulator	D2 agonist	TRPML1 ag	Six1-Eya2 inh	TRPML1 inh
COC(=O)c1ccc(N2CCOCC2)c(NC(=O)c2cccs2)c1	8	-1.0%	-7.4	-0.3	3	-6
O=C(Nc1ccccc1Cl)c1sccc1-c1ccccc1	47	9.4%	-2.9	4.0	25	-15
N#Cc1c(NC(=O)/C=C/c2ccco2)sc2c1CCCC2	1	23%	-4.9	0.5	-13	3
Cc1nc2ccsc2c(=O)n1-c1ccc(Cl)cc1	7	2.6%	-0.8	-0.9	-1	12
O=C(CSc1nc(-c2cccs2)cc(C(F)(F)F)n1)NCCCn1ccnc1	1	-6.5%[38.3 µM]	1.6	0.3	0	-4
Cn1c(=S)n(/N=C/c2cccs2)c2ccccc21	-6	1.8%	-1.7	2.8	-1	14
Nc1nc(SCc2nc3sc4c(c3c(=O)[nH]2)CCCC4)n[nH]1	-12	-1.2%	-0.8	0.2	-9	5
Cc1ccc2cc(C)c3nnc(SCC(=O)c4cccs4)n3c2c1C	0	2.7%	-0.7	1.1	-6	27
CC(C)CN(C(=O)CSc1n[nH]c(-c2cccs2)n1)C1CCS(=O)(=O)C1 (stereo unspecified)	-15	-1.8%	4.8	1.8	5	-22
N#Cc1ccc(-c2nc3c4ccccc4ccn3c2Cc2ccsc2)cc1	3	3.8%	.	0.1	4	.

Screens: PubChem BioAssay, National Center for Advancing Translational Sciences (NCATS)
